High-throughput results from PubChem BioAssay.
eIF4H FP inh: human eIF4H binding inhibitors, primary screen, translation initiation inhibitor project, biochemical, uHTS, fluorescence polarization; 0.94% of 290,000 active; AID 2012, 2009; inhibition, % at 35 µM; Eukaryotic translation initiation factor 4H (Homo sapiens), Q15056; eIF4H fluorescence polarization binding assay;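 active means 50% or more with normal probe brightness, or confirmed in later tests; inconclusive means above 50% with abnormal brightness, or retests that disagree; inactive means below 50% or failed in later tests; about a fifth of its hits are not listed in these tables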;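 further: calls also rest on retests at 20 µM and on dose response follow-up; 0% = protein and probe with vehicle and 100% = probe without protein; strong numbers were not always called active; many hits fall short of the cut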
MT1-MMP act inh: blockers of MT1-MMP proenzyme processing, primary screen, HT1080 RFP-PRO-GFP cells, GFP/RFP fluorescence; GFP/RFP ratio change, % at 20 µM; Matrix metalloproteinase-14 (Homo sapiens), P50281; AID 651647, 2012; 0.061% of 360,000 active; GFP/RFP ratio fluorescence, overnight; percent of plate control window, DMSO zero;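 active means GFP/RFP ratio change of at least 30% with cell ATP level not reduced by more than half and red fluorescence within 50% of control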; further: strong numbers were not always called active
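Assay system: HT1080 cells carrying an RFP-PRO-GFP reporter | Dosing: Single dose of 20 µM compound, 1% DMSO final | Incubation: Cells overnight before dosing, compound overnight, 37 °C, 5% CO2 | Evaluation: GFP/RFP fluorescence ratio | Control set: DMSO and RFP-L50D-GFP cell wells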
CSC inhib: cancer stem cell viability inhibitors, primary screen, luminescence; inhibition, % at 7.5 µM; cancer stem cell-like cells viability; 1.1% of 300,000 active;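 active means mean at 75% or more and at least half the replicates too; inconclusive means mean and replicates disagree; tested in HMLE shEcad cells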;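 further: 0% = median of negative and 100% = median of positive control wells; the first replicate is given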
Env fusion inh: inhibitors of HIV-1 Env-driven cell-cell fusion, primary screen, HeLa-JRFL effector, CEM21 target cells, luciferase; inhibition, % at 12.3 µM; 1.1% of 360,000 active; AID 651610, 2012;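 active means mean replicate inhibition score of at least 50 and every replicate individually at or above 50; inconclusive means only one of the two criteria met; inactive means mean below 50 and not all replicates reaching 50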;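 further: 0% = plate neutral controls and 100% = maraviroc near 300 nM; one replicate is shown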
Rce1 inhib: yeast Rce1p protease inhibitors, primary screen, biochemical, fluorescence, cell-free homogeneous; yeast membranes, quenched prenylated peptide cleavage fluorescence; calls only; 0.27% of 290,000 active;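 active means fall in fluorescence gain of 50% or more versus controls, with final raw signal at or below 3038400; inconclusive means same 50% fall but final raw signal above 3038400; inactive means fall in fluorescence gain under 50%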;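 further: plate controls were neutral control wells for no effect and wells lacking membranes for full effect; tested at 10 µM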
Yeast UUG start: modulators of yeast start codon fidelity, primary screen, whole organism, S. cerevisiae, single point, plate reader | S. cerevisiae UUG-firefly luciferase reporter, luminescence/redox ratio | activity score, % at 18.7 µM | 0.13% of 350,000 active | AID 602363, 2012;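 active means replicate mean at a twofold rise or more, about +100% in these data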;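 further: firefly luciferase made from a UUG start codon reports start codon fidelity; reporter light over untreated wells divided by growth signal over untreated wells; some hits fall short of that in this replicate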
PABP polyA inh: PABP poly(A) RNA binding inhibitors, primary screen, biochemical, fluorescence polarization, uHTS; Polyadenylate-binding protein 1 (Homo sapiens), P11940; 1% of 290,000 active; inhibition, % at 35 µM;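 active means 50% or more with normal probe brightness, or confirmed in later tests; inconclusive means above 50% with abnormal brightness, or retests that disagree; inactive means below 50% or failed in later tests; about a fifth of its hits are not listed in these tables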;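 further: calls also rest on retests at 20 µM and on dose response follow-up; controls were probe without protein and protein plus probe with vehicle; some compounds called inactive have numbers as strong as hits; many hits fall short of the cut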
Target sequence (P11940 whole entry, looked up): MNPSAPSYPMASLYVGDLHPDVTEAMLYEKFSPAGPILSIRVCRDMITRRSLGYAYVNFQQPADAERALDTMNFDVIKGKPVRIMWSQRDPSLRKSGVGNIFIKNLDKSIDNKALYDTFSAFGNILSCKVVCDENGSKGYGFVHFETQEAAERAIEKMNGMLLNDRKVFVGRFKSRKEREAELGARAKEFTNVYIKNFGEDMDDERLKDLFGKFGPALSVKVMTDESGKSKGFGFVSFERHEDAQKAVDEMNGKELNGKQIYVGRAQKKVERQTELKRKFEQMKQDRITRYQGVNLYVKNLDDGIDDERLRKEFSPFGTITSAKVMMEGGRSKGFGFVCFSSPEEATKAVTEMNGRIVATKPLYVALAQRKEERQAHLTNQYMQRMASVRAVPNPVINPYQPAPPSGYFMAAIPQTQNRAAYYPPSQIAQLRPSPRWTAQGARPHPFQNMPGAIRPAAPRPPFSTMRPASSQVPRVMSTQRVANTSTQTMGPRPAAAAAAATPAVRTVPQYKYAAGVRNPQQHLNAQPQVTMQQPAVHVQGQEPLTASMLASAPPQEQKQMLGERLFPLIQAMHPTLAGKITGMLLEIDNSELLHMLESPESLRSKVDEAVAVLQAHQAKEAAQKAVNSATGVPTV
eIF4H FP inh retest: further read-out of eIF4H FP inh, marked with its call; inhibition, %; compound at 20 µM; confirmation average;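 mean of two retest wells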
PABP polyA inh retest: also measured in PABP polyA inh; calls as there; inhibition, %; compound at 20 µM; confirmation repeats;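 mean of two retest wells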
MT1-MMP act inh RFP: further read-out of MT1-MMP act inh, marked with its call; RFP signal change, %; measured here: RFP expression control read;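 0 = vehicle wells; hits needed this value within 50% of zero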
* = called active by the depositor; i = inactive; ? = inconclusive; . = no result given.

SMILES	eIF4H FP inh	MT1-MMP act inh	MT1-MMP act inh RFP	CSC inhib	Env fusion inh	Rce1 inhib	Yeast UUG start	PABP polyA inh	others
O=C(Nc1cc(F)ccc1F)C1CCCO1 (stereo unspecified)	-8	6	0	-8	.	i	.	-7
CCc1cc(C(=O)NNC(=O)CCN2CCN(c3ccccc3)CC2)sc1C	-1	4	1	.	0	i	7	44
COC(=O)CCCC(=O)N1CCCC(C(=O)c2ccc(OC)cc2C)C1 (stereo unspecified)	-5	-1	2	-1	-3	.	.	0
Cc1ccc2[nH]c(=O)c3cc(C(=O)NCC4CCCO4)sc3c2c1 (stereo unspecified)	-6	13	4	-5	3	i	.	6
Nc1ccccc1-c1nnc2n1CCCCC2	-5	0	6	0	4	i	-16	-6
CSc1nc2ccc(S(=O)(=O)N(C)C)cc2s1	-10	3	-1	-10	-29	i	-17	12
CCNS(=O)(=O)c1ccc(CCC(=O)N2CCOCC2)cc1	8	0	0	-4	5	i	-21	11
COC(=O)c1ccc(CNC(=O)C2CCC(=O)N(CCc3ccccn3)C2)cc1 (stereo unspecified)	.	4	6	.	14	.	7	.
Cc1ccnc(NC(=O)CNC(=O)c2ccc3c(c2)OCO3)c1	-9	-1	3	-5	-2	i	-15	4
CC1Oc2ccccc2N(CC(=O)N(Cc2ccccc2)Cc2ccccn2)C1=O (stereo unspecified)	7	-1	1	1	.	i	.	7
CN(CCC#N)CC(=O)Nc1ccc(S(N)(=O)=O)cc1	13	0	0	0	36	i	-11	15
Cc1ccc(S/C(=N\S(=O)(=O)c2ccc(Cl)cc2)c2ccccc2)cc1	-2	-5	-5	6	-4	i	-11	-4
Cc1ccc(S(=O)(=O)N(Cc2ccc(Cl)cc2)c2ccccc2C(=O)NCc2cccnc2)cc1	4	-3	1	9	42	i	-6	-7
CCOc1ccccc1Cn1c(=O)sc2ccccc21	-6	-2	-6	4	-16	i	.	0
CC(CCc1ccccc1)NC(=O)COC(=O)c1ccccc1Br (stereo unspecified)	-16	3	4	-9	-7	i	-8	6
O=C(N/N=C/c1ccc(Br)cc1)c1ccc(Br)o1	8	8	2	0	-91	i	.	32
c1ccc2c(c1)OCC(c1nnc3sc(-c4cnccn4)nn13)O2 (stereo unspecified)	26	-3	-1	.	10	i	-14	9
CN(C[C@H](CC1CCCCC1)N(C[C@H](Cc1ccccc1)N(CCc1ccccc1)N=O)N=O)N=O	-12	-2	-10	4	42	i	-12	-4
O=C(CSCCO)Nc1ccc([N+](=O)[O-])cc1	3	7	4	-11	0	i	3	-4
O=C(NC(=S)Nc1ccc2c(c1)C(=O)c1ccccc1C2=O)c1ccc(F)cc1	70	.	.	20	.	i	.	10*	eIF4H FP inh retest=-13;PABP polyA inh retest=103*

Quoted at random: three compounds from above, in no set order.
SMILES	eIF4H FP inh	MT1-MMP act inh	MT1-MMP act inh RFP	CSC inhib	Env fusion inh	Rce1 inhib	Yeast UUG start	PABP polyA inh	others
CCOc1ccccc1Cn1c(=O)sc2ccccc21	-6	-2	-6	4	-16	i	.	0
Nc1ccccc1-c1nnc2n1CCCCC2	-5	0	6	0	4	i	-16	-6
CN(C[C@H](CC1CCCCC1)N(C[C@H](Cc1ccccc1)N(CCc1ccccc1)N=O)N=O)N=O	-12	-2	-10	4	42	i	-12	-4

Back to the main list, starting 3 compounds before the break.
SMILES	eIF4H FP inh	MT1-MMP act inh	MT1-MMP act inh RFP	CSC inhib	Env fusion inh	Rce1 inhib	Yeast UUG start	PABP polyA inh	others
CN(C[C@H](CC1CCCCC1)N(C[C@H](Cc1ccccc1)N(CCc1ccccc1)N=O)N=O)N=O	-12	-2	-10	4	42	i	-12	-4
O=C(CSCCO)Nc1ccc([N+](=O)[O-])cc1	3	7	4	-11	0	i	3	-4
O=C(NC(=S)Nc1ccc2c(c1)C(=O)c1ccccc1C2=O)c1ccc(F)cc1	70	.	.	20	.	i	.	10*	eIF4H FP inh retest=-13;PABP polyA inh retest=103*
Cc1cc(C)c(S(=O)(=O)Nc2cccc(C(=O)O)c2)cc1S(=O)(=O)Nc1cccc(C(=O)O)c1	.	-1	3	-3	5	i	.	.
COc1cc(CNC2CCCCC2)c(Br)cc1OC1CCCC1	-3	1	-3	-4	-66	i	.	5
O=C(O)CC(NC(=O)C12CC3CC(CC(C3)C1)C2)c1ccc(Cl)cc1 (stereo unspecified)	-6	2	1	-5	-2	i	9	2
CCOC(=O)NC(=O)/C(N=Nc1ccc(C(F)(F)F)cc1)=C(\C)O	-2	8	-1	9	28	i	-8	4
C[C@@H]1COC(=O)[C@H](CC(=O)OC(C)(C)C)C/C=C\C[C@@H](CC(=O)N[C@H](CO)Cc2ccccc2)C(=O)N1	.	-1	4	-10	-8	.	-2	.
CCOc1cc(C(=O)NN2CCOCC2)cc(OCC)c1OCC	2	1	1	-13	-1	i	-6	-4
CCS(=O)(=O)c1ccccc1C(=O)NC1CCCc2ccccc21 (stereo unspecified)	-5	-2	-2	-14	2	i	-19	3
O=c1c2ccccc2nnn1CSc1nnnn1-c1ccc(O)cc1	4	1	-5	-5	-11	i	-7	10
O=C(Nc1ccc(F)cc1F)NC1CCN(S(=O)(=O)c2ccc(F)cc2)CC1	-3	1	-1	-1	16	i	.	-6
COc1ccc(Cc2nc(-c3ccncc3)no2)cc1	-7	-2	-4	-6	-8	i	.	-11
Cc1cccc(-n2c(C)cc(/C=C3\C(=N)N4N=C(CC(C)C)SC4=NC3=O)c2C)c1	14	-8	-6	-4	-3	i	-12	8
CCOC(=O)N1CCN(CCC(=O)c2ccc(Br)cc2)CC1	-16	-2	2	8	3	i	-6	5
O=C(C1CCCCCC1)N1CC[C@@H](N2CCC(O)CC2)[C@H](O)C1	4	-1	4	-8	-9	i	-15	7
COc1ccc(C(=O)N/N=C/c2ccccn2)cc1OC	-3	-2	1	17	-16	i	-13	-6
COCCCn1c(SCC(=O)N2CCCCC2C)nnc1-c1ccco1 (stereo unspecified)	9	3	-3	-5	-9	i	-2	6
O=C(CN1C(=O)C(=O)N(Cc2ccco2)C1=O)NC1CCCCC1	15	-3	-1	-27	0	i	.	12
Cc1cccc(C)c1OCc1nnc(SCC(=O)Nc2ccccc2F)o1	-3	2	3	-13	-26	i	-1	-26
CCOc1ccccc1/C=C/C(=O)N1CCN(C(=O)c2ccco2)CC1	.	0	-1	-12	?	.	7	.
NC(N)=N/N=C/c1cccc(Cl)c1Cl	3	3	1	1	-11	i	1	4
CCCOc1nc(SCCC)nc2c1cnn2-c1ccccc1	4	-3	2	24	24	i	3	6
CC(=O)N1CCc2cc(S(=O)(=O)NCCC(=O)Nc3cc(C)cc(C)c3)ccc21	1	5	0	.	.	.	-3	7
CCN(Cc1ccncc1)Cc1cn(C)nc1-c1ccc(Oc2ccccc2)cc1	3	0	-4	40	-2	i	.	9
COC(=O)N(C)CCCC1(C)C(=O)N(C)c2ccc(O)cc21 (stereo unspecified)	-6	18	-2	-13	-32	i	-23	5
CCCCn1c(N)c(N(CC(C)C)C(=O)CCNC(=O)c2ccc([N+](=O)[O-])cc2)c(=O)[nH]c1=O	.	1	1	.	-5	.	1	.
COc1ccc(N2C(=O)c3ccc(C(=O)Nc4ccccc4O)cc3C2=O)cc1	3	5	5	-2	4	i	0	12
O=C(N1CCOCC1)C(F)(F)C(F)(F)C(F)(F)C(F)(F)C(=O)N1CCOCC1	1	4	-8	-17	26	i	-8	2
CC(C)c1nnc(NC(=O)C2CCCN2C(=O)Nc2ccc(F)cc2)s1 (stereo unspecified)	-11	-3	-2	.	-3	i	-10	2
COc1ccc(C)cc1S(=O)(=O)N(C)CC(=O)NCc1ccncc1	-6	-1	-2	-4	-10	i	-3	10
O=C(/C=C/c1ccccc1)NNC(=O)c1ccco1	-8	-5	-3	0	-6	.	-9	-1
CCCCn1c(Nc2ccc(OC)cc2)nc2ccccc21	-1	3	3	-13	-43	i	-3	-18
O=S(=O)(c1cccc2cnccc12)N1CCNCC1	.	-14	-7	-7	29	.	-43	.
Cc1cc(S(=O)(=O)N2CCCOC2CNC(=O)C(=O)NCCCN2CCOCC2)ccc1F (stereo unspecified)	-5	0	1	-1	3	i	-7	4
CC(=O)Nc1ccccc1C(=O)C(=O)Nc1cccc(C(=O)NCc2ccccc2)c1	-3	6	2	-4	-24	i	-6	1
Cc1ccc(CN2C(=O)N/C(=C/c3ccc4c(c3)n(C)c(=O)n4C)C2=O)cc1	-12	.	.	8	.	i	.	6
O=C(CN(C(=O)CCC(=O)Nc1ccccn1)C1CCCC1)NCc1ccc(F)cc1	-9	0	0	19	7	i	10	1
CCc1c(C)c(C#N)c2nc3ccccc3n2c1N(C)C	4	-7	-10	-12	.	.	-21	-1
O=C(NNC(=S)Nc1ccccc1)Nc1ccccc1	0	-1	-3	-7	7	i	.	-1
CCCOc1ccc(C(=O)NCCc2ccccc2)cc1	-4	3	4	.	30	i	-50	-11
CCCCCSc1nncc(=O)[nH]1	-14	-9	2	6	-19	i	-21	-2
O=C(O)c1ccccc1S(=O)(=O)NCC(O)COC1CCCCC1 (stereo unspecified)	0	-1	3	10	-11	i	-11	8
COc1cccc(C2=CC(c3cccc(OC)c3OC)n3nnnc3N2)c1 (stereo unspecified)	8	-7	-13	51	.	i	-17	4
O=C(NCc1ccccc1Cl)C1(S(=O)(=O)c2ccc(Cl)cc2)CC1	-6	-2	0	.	11	i	-3	2
COc1cc2c(cc1OC)CN(CC(=O)NC(=O)NCc1ccccc1)CC2	-1	-2	-2	-3	3	i	-7	3
CCOC(=O)c1c(NC(=O)CN2C(=O)NC3(CCCCC3C)C2=O)sc(C)c1C (stereo unspecified)	-8	-1	0	23	15	i	-6	11
Cn1c(=O)c2c(-c3ccc(C(C)(C)C)cc3)n(CC3CCCO3)cc2n(C)c1=O (stereo unspecified)	4	5	-4	2	-66	i	2	-5
Cc1cccc(OCC2CCCN(Cc3nc(C4CC4)no3)C2)c1 (stereo unspecified)	-6	-6	-1	-2	5	i	11	-5
Cc1ccccc1OCC(O)Cn1nnc2ccccc21 (stereo unspecified)	3	2	1	4	.	.	-21	-14
CCC(C(=O)NCc1ccco1)N(C(=O)CNS(=O)(=O)c1ccc(C)cc1)c1ccccc1OC (stereo unspecified)	1	-6	-2	.	.	i	.	1
COC(=O)C1=C(C)N(Cc2ccccc2)C(=NCC(C)C)N[C@H]1c1cccc(F)c1	.	-8	-3	.	-19	.	-10	.
O=C(NC1CCCC1)C(c1ccccc1)N(C(=O)c1ccno1)c1cccnc1 (stereo unspecified)	-5	-12	0	-11	-53	i	-5	0
COc1ccc(NC(=O)c2nc[nH]c2C(=O)N2CCN(C(=O)OC(C)(C)C)CC2)cc1	-1	1	-2	-15	-39	i	11	0
NC(=O)NC(=O)COC(=O)c1ccccc1OCc1ccc(F)cc1	1	-2	0	-12	5	i	-8	2
CCN(CC)CCOC(=O)c1ccc(NC(=O)COc2cc(=O)n(CC)c3ccccc23)cc1	-6	0	8	-11	14	i	-15	1

No enrichment for hits; about 3% have a hit in one of these screens.
